# Assay outcomes as filed in PubChem BioAssay.
# PMP22 txn prim – modulates PMP22 transcription in S16 Schwann cells | Potency, µM (series often up to 57.5 µM), inactives show at the highest dose activity change, negative = inhibition, most hits filed as inhibitors | S16 Pmp22-F2sN Schwann cells (luciferase reporters placed in the Pmp22 gene), FLuc/NLuc coincidence luminescence, 24 h | 43,000 compounds, 2% hits | AID 1508649; active = clear falling dose curves in both reporters; inconclusive = both reporters move, but less clearly or upward; inactive = either reporter flat; the % is the NLuc reporter signal; note: % is set by controls: 0 for no effect and ±100 for the full control effect; some results filed as inactive show a strong effect at the top dose
#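 qHTS, 1536-well. Cells seeded, compounds added by pin tool, 24 h 37C. Nano-Glo reagent 1 (lysis/FLuc), 10 min RT, read; Stop&Glo, 10 min RT, read NLuc.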
# HTT prom inh – HTT promoter inhibition | Potency, µM (titrated, usually from 57.5 µM), without a hit: top-dose activity change, negative = inhibition, usual class: inhibitors | AID 1508623 | HEK293 HTT promoter firefly luciferase reporter (activity 0% = vehicle and -100% = no light), 24 h | 48,000 compounds, 0.93% hits; active = well fitted inhibition curve with a large enough effect; inconclusive = small, poorly fitted or top-dose-only effect; inactive = no such curve, though single readings can be large or run the other way; note: nearly all actives have a fitted effect of over 50% in size
#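 Luminescence was read after Dual-Glo reagent and a 10 min room-temperature incubation. Values were normalized to vehicle (0% activity) and zero RLU (-100% activity). Reporter HEK293 cells had been exposed to compounds (up to 57.5 uM final) for 24 h.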
# * = called active by the depositor; ? = inconclusive; · = no result given; & = joins results of further samples; [ ] = dose if it differs, or a comment. Potency is the fitted concentration of half-maximal effect. Rows are unselected; about 2.7% have a hit in one of these screens.
SMILES,PMP22 txn prim,HTT prom inh
Cc1ccc(NC(=O)CSc2nnc3[nH]c(=O)cc(C)n23)cc1Cl,-19%,-3%
CCCCN1CCc2nc(N3CCN(c4ncccn4)CC3)ncc2C1,-19%,-11%
Cc1cc(Nc2cccc(O)c2)c2cccc(Br)c2n1,?,4%
Cc1cc(=O)n(Cc2cccc(Cl)c2)c2c1c(C)nn2-c1ccccc1,-16%,-13%
Cc1cccc(NC(=O)c2oc3ccccc3c2NC(=O)c2cc(=O)c3ccc(C)cc3o2)c1,2%,0%
COc1ccc(Cl)cc1NC(=O)c1c(NCc2ccc(C)o2)sc2c1CCCC2,?,-5%
CSc1ncc(C(=O)Nc2c(C)cccc2C)c(-c2ccccc2)n1,-9%,-1%
Cc1ccnc(NS(=O)(=O)c2ccc(N)cc2)n1,·,0%
Cc1ccc(Cn2c(CCNC(=O)c3cccc(C)c3)nc3ccccc32)cc1,-17%,?
CN1C(=O)c2[nH]nc(-c3ccc(F)cc3)c2C1c1cccc(O)c1 (stereo unspecified),4%,2%
CCOc1ccc(CNC(=O)c2cccc(Nc3nc4ccccc4n4nnnc34)c2)cc1OC,?,?
CN1CCN(C2=Nc3cc(F)ccc3Cc3ccccc32)CC1,·,-6%
CCc1nn(CC(=O)NC(C)CC)c(=O)c2cc3occc3n12 (stereo unspecified),-40%,-18%
CCOc1ccc(C2c3[nH]c4ccccc4c3CCN2C(=O)CSc2ccccc2)cc1 (stereo unspecified),17%,?
COc1ccccc1OCC(=O)N(Cc1ccco1)Cc1ccccc1F,-5%,-28%
O=S(=O)(c1ccc(Cl)cc1)c1nc(-c2ccccc2F)oc1NCc1ccccc1,?,-5%
COc1cccc2c1Oc1ncccc1N(C(=O)CCC(=O)NCc1ccc(C)cc1)C2,-3%,-3%
Cc1cc(C(F)F)n2nc(C(=O)Nc3ccc(F)c(Cl)c3)nc2n1,-29%,6%
COc1cc(-c2noc(C3CC(=O)N(c4ccc5c(c4)OCCO5)C3)n2)cc(OC)c1OC (stereo unspecified),4%,-33%
CNC(=O)c1ccc(NC(=O)c2nsc3ccccc23)cc1,21%,?
Cc1cc(S(=O)(=O)Nc2cc3c(cc2N2CCOCC2)n(C)c(=O)c(=O)n3C)ccc1F,?,-8%
CCOC(=O)c1cccc(NC(=O)CCCn2nc(C)c3c(C)n(-c4ccccc4)nc3c2=O)c1,-21%,6%
COc1ccc(NC(=O)c2cc(CN3CCCC3)on2)cc1Cl,-3%,50%[activator]
COc1ccc(NS(=O)(=O)c2cc3c(cc2C)NC(=O)CO3)c(OC)c1,?,-20%
COc1ccc(N2CC(NC(=O)COc3ccccc3)CC2=O)cc1OC (stereo unspecified),-3%,-8%

# Next section.
SMILES,PMP22 txn prim,HTT prom inh
CCOC(=O)c1cnc2c(ccc3ccccc32)c1Nc1ccc(OC)c(OC)c1,-25%,?
CC(=O)N(Cc1cccnc1)c1nc2ccc(F)cc2s1,-16%,-14%
COc1ccc(C(=O)COC(=O)c2cc(-c3ccccc3)nc3c(C)cccc23)cc1,3%,-3%[11.5 µM]
CCC(=O)N1CCc2cc(CNC(=O)c3ccccc3C)ccc21,?,45%[activator]
CCCNC(=O)c1ccc(Cn2c(SCC(N)=O)nc3ccccc3c2=O)cc1,-16%,-8%
COC(=O)c1ccc(Cl)cc1NC(=O)N1CC2CCCN2c2ccccc21 (stereo unspecified),-1%,-33%
COc1ccc(-n2ccn(CC(=O)NCCc3ccccc3)c(=O)c2=O)cc1OC,-27%,-16%
CCOc1ccc(CCNC(=O)c2cc(Nc3ccc(C)cc3C)nc3ccccc23)cc1OCC,-23%,13%
O=C(COCCOCCOCC(=O)Nc1c(I)cc(I)c(C(=O)O)c1I)Nc1c(I)cc(I)c(C(=O)O)c1I,·,-2%
CC(C)c1nc2ccc(C(=O)NCc3ccc(F)cc3)cc2o1,8%,-13%
O=C(CSc1nccn1Cc1ccc(Cl)cc1)Nc1nc2ccccc2s1,2%,?
Cc1nc2ccc(S(=O)(=O)CCC(=O)Nc3ccccc3C)cc2s1,-9%,-4%
Cc1ccc(-n2c(=O)c3c4c(sc3n(Cc3cc(=O)n5cc(Cl)ccc5n3)c2=O)CCC4)cc1C,?,-6%
COc1ccc(Nc2ncc(C(=O)Nc3cccc(OC)c3)c3ccccc23)cc1,-28%,15%
Cc1ccc(C(=O)Nc2ccc(F)cc2)cc1S(=O)(=O)N1CCOCC1,-7%,?
COc1ccc(-n2c(=O)c3ccc(C(=O)NCc4ccc(C)cc4)cc3n(CC(=O)Nc3ccc(C)cc3)c2=O)cc1,?,-26%
Cc1nn(C)c2c1c(C(F)(F)F)cc(=O)n2C(C)C(=O)NCc1ccc(Cl)cc1 (stereo unspecified),-5%,-5%
O=C(OCC(O)CO)c1ccccc1Nc1ccnc2cc(Cl)ccc12 (stereo unspecified),·,-5%
COc1ccc(N2CCN(S(=O)(=O)CCNC(=O)c3ccc(C(F)(F)F)cc3)CC2)cc1,2%,-26%
CCOC(=O)c1c(NC(=O)COc2ccc(CC)cc2)sc2c1CCCC2,-28%,-8%
Cc1cccc(C(=O)NCCc2nc3ccccc3n2CCC(C)C)c1,-26%,?
O=C(Nc1ccc(C(=O)N2CCN(c3ccccc3)CC2)cc1)c1nsc2ccccc12,-5%,-24%
COc1ccc(-c2nnc3c4ccccc4c(-c4ccccc4)nn23)cc1,-12%,-4%
Cc1nc2ncnn2c(C)c1CCC(=O)N1CCN(c2ccc(F)cc2)CC1,0%,-1%
COc1ccc(OCC(=O)N2CCN(C(=O)c3cccc(OC)c3)CC2)cc1,4%,-1%

# 7 entries out of the list, ordered by molar mass, low to high:
SMILES,PMP22 txn prim,HTT prom inh
Cc1cccc(C(=O)NCCc2nc3ccccc3n2CCC(C)C)c1,-26%,?
COc1ccc(-c2nnc3c4ccccc4c(-c4ccccc4)nn23)cc1,-12%,-4%
O=C(OCC(O)CO)c1ccccc1Nc1ccnc2cc(Cl)ccc12 (stereo unspecified),·,-5%
CCOC(=O)c1c(NC(=O)COc2ccc(CC)cc2)sc2c1CCCC2,-28%,-8%
COc1ccc(-n2ccn(CC(=O)NCCc3ccccc3)c(=O)c2=O)cc1OC,-27%,-16%
Cc1nn(C)c2c1c(C(F)(F)F)cc(=O)n2C(C)C(=O)NCc1ccc(Cl)cc1 (stereo unspecified),-5%,-5%
O=C(Nc1ccc(C(=O)N2CCN(c3ccccc3)CC2)cc1)c1nsc2ccccc12,-5%,-24%

# Going on with the list:
SMILES,PMP22 txn prim,HTT prom inh
Cc1ccc(NC(=O)C(CC(C)C)NS(=O)(=O)c2ccc3c(c2)oc(=O)n3C)c(C)c1 (stereo unspecified),-3%,-11%
Cc1ccc(S(=O)(=O)C(CNC(=O)C(=O)NCc2ccc(Cl)cc2)c2ccco2)cc1 (stereo unspecified),-10%,-22%
Cc1cccc(OCC(=O)Nc2cccc(OCc3cc(=O)n4cccc(C)c4n3)c2)c1,?,11%
Cc1cc(C)cc(N2C(=O)CS(=O)(=O)C23C(=O)N(Cc2ccccc2)c2ccccc23)c1 (stereo unspecified),0%,-27%
CCCNS(=O)(=O)c1cc(-c2nn3c(C)nnc3c3ccccc23)ccc1C,?,-4%
Cc1ccc(-n2nc(C(=O)N3CCN(c4ccccc4F)CC3)c3c4ccccc4n(C)c3c2=O)cc1,-9%,-8%
Cc1ccc2cccc(NC(=O)c3cccc4ccccc34)c2n1,-9%,-27%
CN1C(=O)c2ccccc2Sc2ccc(NC(=O)COc3ccccc3)cc21,12µM*,?
CCCCNS(=O)(=O)c1ccc2nc(-c3cccnc3)cc(C(=O)NCCCOCC)c2c1,-18%,3%
Cc1ccc(-c2nc(CCNC(=O)C(=O)Nc3ccc(C)c(Cl)c3)cs2)cc1,-31%,4%
CC(=O)Nc1ccc(S(=O)(=O)N2CCC(c3nnc(-c4ccc(C)cc4)o3)CC2)cc1,-28%,?
CCN(CC)S(=O)(=O)c1ccc2c(c1)N(CC(=O)Nc1ccc(F)cc1)C(=O)CO2,-9%,-13%
CCN(CC)c1nn2c(=O)c(C(=O)NCCc3cccc(C)c3)cnc2s1,?,-16%
Cc1ccc2nc(N(Cc3cccnc3)C(=O)c3ccc4c(c3)OCCO4)sc2c1,?,1%
CCC1CN(C(=O)N2CCC(C(=O)NCCCc3ccccc3)CC2)c2cc(C)ccc2O1 (stereo unspecified),?,?
CC(=O)Oc1ccc(C)cc1,·,10%
CCC1CCc2nc3sc(C(=O)Nc4ccc(C)cc4)c(N)c3cc2C1 (stereo unspecified),-16%,6%
COc1ccccc1N1CCN(C(=O)CN2C(=O)COc3ccc(S(=O)(=O)N4CCCC4)cc32)CC1,-19%,-16%
CCOC(=O)c1ccc(NC(=O)CSc2nnc(-c3ccncc3)n2-c2ccccc2)cc1,-4%,-9%
NC1=N[C@@]2(c3cc(NC(=O)c4ccc(F)cn4)ccc3F)COC[C@@H]2CS1,·,-20%
CCN(CC)CCCNc1oc(-c2ccc(OC)cc2)nc1C#N,-6%,-6%
CCOC(=O)c1c(C)[nH]c(C)c1S(=O)(=O)N(C)CC(=O)NCc1cccc(Br)c1,0%,-41%
O=c1c(O)c(-c2ccc(O)c(O)c2)oc2cc(O)cc(O)c12,·,-12%&30%
Cc1ccc(CNc2cc(C)nc3nc(-c4cccc(C)c4)nn23)cc1,-40%,-22%
CCOC(=O)c1cc(-c2ccc(C)cc2)n(CCC(=O)Nc2ccc(OC)c(OC)c2)c1C,?,-27%

# In the list so far, 2 have a CF3 group.
SMILES,PMP22 txn prim,HTT prom inh
Cc1nn(C)c2c1c(C(F)(F)F)cc(=O)n2C(C)C(=O)NCc1ccc(Cl)cc1 (stereo unspecified),-5%,-5%
COc1ccc(N2CCN(S(=O)(=O)CCNC(=O)c3ccc(C(F)(F)F)cc3)CC2)cc1,2%,-26%

# (list continues)
SMILES,PMP22 txn prim,HTT prom inh
CCOCCCNC(=O)c1cc(Sc2cccc(Cl)c2)nc2ccccc12,-20%,-25%
O=C(c1ccc(F)cc1)c1cn(Cc2ccccc2F)c2cc3c(cc2c1=O)OCCO3,-7%,-6%
Cc1nnc(N2CCC(C(=O)NCCc3ccccc3)CC2)c2nn(-c3ccccc3)c(C)c12,-14%,-20%
Cc1cccc(NC(=O)Cn2c(=O)n(CCc3ccccc3)c(=O)c3sc4ccccc4c32)c1,-36%,22%
O=C(O)c1ccc(NC(=O)c2cc3ccccc3o2)cc1,-8%,41%[activator]
O=C(CSc1nc(-c2ccccc2F)nc2cc(=O)[nH]n12)Nc1cccc(C(F)(F)F)c1,?,-21%
CCc1ccc(NS(=O)(=O)c2ccc3[nH]cc(C(=O)NCCCOC(C)C)c(=O)c3c2)cc1,-11%,-16%
COc1ccc2c(CNC3CCC(C)CC3)c(C(=O)O)n(Cc3ccc(F)cc3)c2c1 (stereo unspecified),-3%,-18%
CN1C(=O)c2ccccc2Sc2ccc(NC(=O)N3CCN(c4ccc(F)cc4)CC3)cc21,?,28µM*
CC1(c2ccccc2)CC(C)(C)N(C(=O)c2cccc(Cl)c2)c2ccccc21 (stereo unspecified),-3%,?
CCOc1ccc(CCNC(=O)CN2CCN(Cc3ccc(F)cc3Cl)C2=O)cc1OCC,?,-27%
Cc1ccc(C(=O)N2CCn3c4c(c5cc(C)ccc53)CCCC42)cc1 (stereo unspecified),-7%,?
O=C(Nc1cccc(Cl)c1Cl)c1ccc2c(c1)N(Cc1cccc(Cl)c1)C(=O)c1ccccc1S2=O (stereo unspecified),0%,-14%
O=C1CCSC2(C(=O)N(Cc3ccccc3)c3ccccc32)N1c1ccccc1 (stereo unspecified),?,?
Cn1cc(-c2cc3n(n2)CCC(=O)N3CCCC(=O)NCc2ccccc2Cl)c2ccccc21,-11%,-10%
COc1cc(CN(C(=O)c2ccc(OC(C)C)cc2)c2ccccn2)cc(OC)c1OC,?,16µM*
CCCc1nn2c(=O)cc(COC(=O)CNC(=O)COc3ccc(C)cc3)nc2s1,-15%,-7%
O=C(c1cc(-c2ccc(Br)cc2)n[nH]1)N1CCN(S(=O)(=O)c2ccc(Br)cc2)CC1,?,-22%
Cc1ccc(CNC(=O)c2cccc(NC(=O)N3CCSc4ncccc43)c2)cc1,8%,?
Clc1ccc2c(c1)Nc1ccccc1S2,·,1%
CCOC(=O)CCc1c(C)nc2c(c(C)nn2-c2ccc(C)cc2)c1C,0%,-5%
CSc1ccc(CNCc2c(C(=O)O)c(C)n(Cc3ccc(F)cc3Cl)c2C)cc1,?,-18%
CCOc1ccc(-n2ccnc2SCC(=O)Nc2ccc3c(c2)OCO3)cc1,-4%,?
Cc1ccc(NC(=O)C2CCN(S(=O)(=O)c3ccc4[nH]c5c(c4c3)CCCCC5)CC2)cc1,15%,?
COc1cccc(NC(=O)/C(C#N)=C\c2cn(Cc3ccc(C)cc3)c3ccccc23)c1,?,?
CCOC(=O)c1c(-c2ccc(C)cc2)csc1NC(=O)c1cc(=O)c2cc(C)ccc2o1,-24%,14%
COc1ccc(C(=O)Nc2ccccc2-c2nc3ccccc3s2)cc1OC,-18%,-16%
Cc1cc(NC(=O)c2ccco2)cc(-c2nc3ccccc3o2)c1O,-5%,-6%
Cc1nc2nc(NC(=O)c3ccc(F)cc3)[nH]n2c(=O)c1Cc1ccccc1,-21%,1%
CCN(CC)CCNC(=O)c1cc2c(=O)n(C)c3cc(Cl)ccc3c2s1,-21%,-2%
